Marburg entry: blocks Marburg virus binding or cell entry; Potency, µM (top dose mostly 49.2 µM), inactives show top-dose activity change, negative = inhibition, usual class: inhibitors; Marburg virus pseudotype entry/binding inhibition, cell-based; control for the full effect not named in the record; many of its hits are not listed in these tables; 18,000 tested, 6.5% active; active means well fitted inhibition curve with a large enough effect; inconclusive means small, poorly fitted or top-dose-only effect; inactive means no such curve, though single readings can be large or run the other way; tested in HEK293 cells; note: luciferase read-out
LASV entry inh: blocks Lassa virus binding or cell entry. Lassa virus pseudotyped entry inhibition, cell-based qHTS; control for the full effect not named in the record; many of its hits are not listed in these tables. Potency, µM (doses to about 49.2 µM), for inactives: at the highest dose activity change, negative = inhibition, hits mostly inhibitors. 18,000 tested, 4.1% active. AID 720533; active = well fitted inhibition curve with a large enough effect; inconclusive = small, poorly fitted or top-dose-only effect; inactive = no such curve, though single readings can be large or run the other way; tested in HEK293 cells; note: luciferase read-out
Active calls of the source: *; ? = inconclusive; nt = no result given; & = joins results of further samples; [ ] = dose if it differs, or a comment. % is set by controls: 0 for no effect and ±100 for the full control effect; potency is the fitted concentration of half-maximal effect. Only part of the results is shown, so the mix of outcomes need not match the whole.

SMILES	Marburg entry	LASV entry inh
CC(=O)N1CCC[C@H]1C(=O)N1CCc2c(cnc(C)c2CNC(=O)/C=C/c2cccs2)C1	?	-3%
COc1cc2c(cc1OC)C1OC(c3ccsc3)(C2)Oc2cc(C)oc(=O)c21 (stereo not given)	-40%[8.59 µM]	-16%[8.59 µM]
COc1ccccc1-c1ccc(C(=O)N(C)C(C)c2ccon2)c(N2CCN(c3ccccc3F)CC2)n1 (stereo not given)	0%	-2%
O[C@H]1C[C@H](c2ccccc2)N(CC2CCCCC2)C[C@H]1n1cc(-c2ccc(F)cc2)nn1	-23%	?
ONCc1ccccc1	3%	4%
CN(C)CC(C)(C)CNC(=O)c1cnn(-c2ncc3c(n2)-c2ccccc2CC3)c1-c1ccco1	?	-2%
CCN(CC)CCCCNc1ncc2cc(-c3cc(OC)cc(OC)c3)c(NC(=O)NC(C)(C)C)nc2n1	1.1µM*	13µM*
Cc1nnc(-c2cccc(-c3ccc(C(=O)NCC4CC4)cc3)c2)o1	?	nt
COc1ccc(F)c(CN2CCOc3ccc(CN4CCC(Oc5cccnc5)CC4)cc3C2)c1	?	6%
O=C(c1ccc(C(F)(F)F)cc1)N(Cc1cc2ccc(F)cc2nc1N1CCOCC1)C1CC1	-5%	-10%
Cc1ccc(C(=O)OC[C@H]2O[C@H](Cl)C[C@H]2OC(=O)c2ccc(C)cc2)cc1	1%[8.59 µM]	-6%[8.59 µM]
CCC(=O)OCC(=O)[C@@]1(OC(=O)CC)[C@@H](C)C[C@H]2[C@@H]3CCC4=CC(=O)C=C[C@]4(C)[C@@]3(Cl)[C@@H](O)C[C@@]21C	?	?
Cc1cccn2c(=O)c(-c3nnn[nH]3)cnc12	-3%	-5%
C=C1C(=O)OC2C=C(C)CCC=C(C)CCC12 (stereo not given)	-19%	-15%
Cc1cccc(CNc2ncnc3ccc(-c4ccc(C(=O)N(C)C)cc4)cc23)c1	24%	?
CCCCC/C=C\C/C=C\C/C=C\CCCCCCC(=O)NCCO	9%&19%&0%	-9%&-3%&-19%
CCCCC/C=C\C/C=C\C/C=C\C/C=C\CCCCOC(CO)CO	?	?
C[C@H]1[C@@H](c2ccccc2)Oc2ccc(Cl)cc2S(=O)(=O)N1Cc1ccc(F)cc1F	-7%	-24%
Nc1c(N=Nc2ccc(-c3ccc(N=Nc4cc(S(=O)(=O)O)c5ccccc5c4N)cc3)cc2)cc(S(=O)(=O)O)c2ccccc12	13µM*	0%
O=[N+]([O-])c1c(Cl)c(Cl)cc(Cl)c1Cl	4%[107 µM]	14%[107 µM]
COc1ccc(COC(=O)NN=C2C[C@@H](O)[C@@H](O)[C@@H]3[C@H]4C(=O)N(C5CCCCC5)C(=O)[C@@H]4CC[C@@H]23)cc1	-29%[8.59 µM]	nt
COCC(=O)Nc1cc(C(=O)N2CCN(c3ccccc3)CC2C)c2c(c1)nc(-c1ccncc1)n2C (stereo not given)	3%	-21%
C=C(C)C(=O)/C=C/C=C/c1ccccc1	-21%	3%
Nc1nc(N)c2nc(CNc3ccc(C(=O)N[C@@H](CCC(=O)O)C(=O)O)cc3)cnc2n1	-5%	2%
CC(C)(CO)[C@@H](O)C(=O)NCCCC(=O)O	5%	3%
Cc1cnc(-n2ncc(C(=O)NCCN3CCOCC3)c2C(C)C)nc1-c1ccc(F)cc1	-9%	-7%
N#C/C(=C\c1ccc(O)c(O)c1)C(N)=S	?	-39%&-6%&-7%
Cc1ccc([C@H]2C[C@H](O)[C@@H](n3cc(C4CC4)nn3)CN2Cc2cccs2)cc1	?	?
CC(=O)C1CCC2C3CCC4CC(O)CCC4(C)C3CC(O)C12C (stereo not given)	0%	17%
N#Cc1c(NC(=O)c2ccccc2F)sc2c1CCCC2	2%	12%
C[C@H](C(=O)O)c1ccc2cc(O)ccc2c1	-5%	8%
COc1ccc(CNCCS(=O)(=O)NC2CCCCC2)cc1	-29%	-8%
CN1C(=O)CCC1c1cccnc1 (stereo not given)	13%&61%	-3%&0%
CC[N+]1(CC)CCC(=C(c2ccccc2)c2ccccc2)C1C (stereo not given)	4%	-10%
NCCCNCCCCN(CCCN)/[N+]([O-])=N/O	12%	3%
C[C@@H]1[C@@H]2Cc3ccc(O)cc3[C@@]1(C)CCN2CCc1ccccc1	20µM*	?
CO[C@@]1(NC(=O)Cc2cccs2)C(=O)N2C(C(=O)O)=C(COC(N)=O)CS[C@@H]21	7%&1%	1%&11%
CC(=O)OC1CC2CCC1(C)C2(C)C (stereo not given)	13%	-10%
CN(C)C(=O)c1ccc(-c2nc(NCc3ccccc3)c3ccccc3n2)cc1	?	?
Nc1ncnc2c1nc(Br)n2C1OC(CO)C(O)C1O (stereo not given)	-22%	?
C[C@]12C[C@@](C)(C=C1/C=C/c1ccc(F)cc1)C(=O)C[C@H]2c1ccc(F)cc1	3%	15%
CC(=O)c1ccccc1-c1ccc2c(c1)CC(CNC(=O)c1ccnc(Cl)c1)O2 (stereo not given)	-1%	-14%
CC(=O)NCCNc1nc(-c2ccccc2CN(C)C)nc2ccccc12	1%	-2%
CC(C)[C@H](O)C1=CCCCC1=O	-5%	-16%
COc1ccc(-c2cc(=O)c3c(O)cc(O)c(-c4cc(-c5cc(=O)c6c(O)cc(OC)cc6o5)ccc4OC)c3o2)cc1	-11%	-3%
CC(=O)OC1C(=O)[C@]2(C)C(O)CC3OC[C@]3(OC(C)=O)C2[C@@H](OC(=O)c2ccccc2)[C@]2(O)CC(O)C(C)=C1C2(C)C (stereo not given in full)	-25%	?
C=C/C1=C/Cc2ccccc2[C@H](C[N+](=O)[O-])C(C(=O)OC)(C(=O)OC)C1	-16%	-1%
CCN1C(=O)[C@@H]2[C@H]3[C@H](O)[C@H](O)CC(=NO[C@@H]4O[C@H](COC(C)=O)[C@@H](OC(C)=O)[C@H](OC(C)=O)[C@@H]4OC(C)=O)[C@@H]3CC[C@H]2C1=O	12%[8.59 µM]	5%[8.59 µM]
COc1ccc2[nH]cc(CCNc3cc(-c4ccoc4)ncn3)c2c1	-6%	6%
CCOC(=O)/C(C)=N/NC(C)=O	-5%	-1%

No new results follow: entries from further up.
SMILES	Marburg entry	LASV entry inh
COc1ccc(CNCCS(=O)(=O)NC2CCCCC2)cc1	-29%	-8%
CN1C(=O)CCC1c1cccnc1 (stereo not given)	13%&61%	-3%&0%
CC[N+]1(CC)CCC(=C(c2ccccc2)c2ccccc2)C1C (stereo not given)	4%	-10%
NCCCNCCCCN(CCCN)/[N+]([O-])=N/O	12%	3%
C[C@@H]1[C@@H]2Cc3ccc(O)cc3[C@@]1(C)CCN2CCc1ccccc1	20µM*	?
CO[C@@]1(NC(=O)Cc2cccs2)C(=O)N2C(C(=O)O)=C(COC(N)=O)CS[C@@H]21	7%&1%	1%&11%
CC(=O)OC1CC2CCC1(C)C2(C)C (stereo not given)	13%	-10%
CN(C)C(=O)c1ccc(-c2nc(NCc3ccccc3)c3ccccc3n2)cc1	?	?
Nc1ncnc2c1nc(Br)n2C1OC(CO)C(O)C1O (stereo not given)	-22%	?
C[C@]12C[C@@](C)(C=C1/C=C/c1ccc(F)cc1)C(=O)C[C@H]2c1ccc(F)cc1	3%	15%
CC(=O)c1ccccc1-c1ccc2c(c1)CC(CNC(=O)c1ccnc(Cl)c1)O2 (stereo not given)	-1%	-14%
CC(=O)NCCNc1nc(-c2ccccc2CN(C)C)nc2ccccc12	1%	-2%
CC(C)[C@H](O)C1=CCCCC1=O	-5%	-16%
COc1ccc(-c2cc(=O)c3c(O)cc(O)c(-c4cc(-c5cc(=O)c6c(O)cc(OC)cc6o5)ccc4OC)c3o2)cc1	-11%	-3%
CC(=O)OC1C(=O)[C@]2(C)C(O)CC3OC[C@]3(OC(C)=O)C2[C@@H](OC(=O)c2ccccc2)[C@]2(O)CC(O)C(C)=C1C2(C)C (stereo not given in full)	-25%	?
C=C/C1=C/Cc2ccccc2[C@H](C[N+](=O)[O-])C(C(=O)OC)(C(=O)OC)C1	-16%	-1%

(next part)
SMILES	Marburg entry	LASV entry inh
COCOCCn1cc(CN2CCS(=O)(=O)N(Cc3ccc(-c4ccc(C)cc4)cc3)C(CC(C)C)C2=O)nn1 (stereo not given)	?	nt
CCOC(=O)N1C2=NC(C(=O)OC)=C(C(=O)OC)[C@@H]3N(C)c4ccccc4[C@]23C[C@H]1C(=O)OC	2%[8.59 µM]	-6%[8.59 µM]
C=C1/C(=C\C=C2/CCC[C@]3(C)[C@@H]([C@H](C)OCCC(C)(C)O)CC[C@@H]23)C[C@@H](O)C[C@@H]1O	-16%	?
CC1CCC(O)C/C1=C\C=C1/CCCC2(C)C1CCC2C(C)/C=C/C(C)C(C)C (stereo not given)	10%	?
COC(=O)[C@@H]1C[C@H](NC(=O)c2ccccn2)CN1Cc1cccc2ccccc12	1%	-2%
O=Cc1ccccc1C=O	-17%	?
COC(=O)C1=C(C)N(CCc2cc(OC)c(OC)c(OC)c2)C(=O)N[C@H]1c1cccs1	-2%	-30%
Cc1c(C(=O)NCC(C)C)sc2ncnc(NCC3CCCO3)c12 (stereo not given)	16%	-13%
COc1cccc(CN2C(=O)NC(C)(C3CCN(Cc4cc(F)cc(F)c4)CC3)C2=O)c1OC (stereo not given)	-21%	-22%
CSc1nccc(-c2cc(Cl)c3c(c2)CC(CNC(=O)c2nonc2C)O3)n1 (stereo not given)	-15%	-19%
NC(=O)C1CCCN1C(=O)C(Cc1cnc[nH]1)NC(=O)C1CCC(=O)N1 (stereo not given)	16%	0%
CCNC(=O)CCC(N)C(=O)O (stereo not given)	5%	-2%
CC1(C)C(O)C=C[C@@]2(C)C1CC(=O)O[C@@]1(C)C3=CC(=O)OC(c4ccoc4)[C@]3(C)CCC21 (stereo not given in full)	-12%	-18%
COc1ccc(C2/C=C\CN(S(=O)(=O)c3ccc(C)cc3)CC(=O)N2Cc2cccc(F)c2)cc1 (stereo not given)	?	?
CC(=O)Nc1cc(C(=O)N2CCN(C(=O)c3ccco3)CC2)cc2ncn(CCc3ccccn3)c12	-1%	-2%
COC(=O)CCCC1=CC2=C(c3ccccc3)C(=O)C(C)(OC(=O)C3CCCC3)C(=O)C2=CN1CCN1CCOCC1 (stereo not given)	-15%[8.59 µM]	13%[8.59 µM]
CC1=NN(c2ccc([N+](=O)[O-])cc2)C(=O)C1[N+](=O)[O-] (stereo not given)	31%[activator]	3%
COC1=C[C@@H](C(=O)N[C@H]2CCCC[C@H]2NC(C)=O)[C@]2(C)Cc3ccccc3[C@H]2CC1=O	?	6%[8.59 µM]
c1cncc(-c2cncnc2-n2ccnc2)c1	?	-11%
O=C(Nc1cccc(C2=NCCN2)c1)Nc1cccc(C2=NCCN2)c1	6%	-8%
COC(=O)C/C=C1\c2ccc3c(c2[C@@H](OC)[C@@H]1C)OCO3	-4%	-14%
COc1ccccc1C1CC(=O)Oc2cc3c(cc21)OCO3 (stereo not given)	-15%	-1%
COC(=O)C1=C(C)N(Cc2ccccc2)C(=NCc2ccccc2)NC1c1ccccc1 (stereo not given)	?	29%[8.59 µM]
O=C1C(Cl)=C(NCCN2CCOCC2)C(=O)c2ncccc21	13µM*	11µM*
C[C@]12CCC(=O)C=C1CC[C@H]1[C@@H]3CC[C@](O)(C(=O)CO)[C@@]3(C)C[C@H](O)[C@@]12F	18%&-3%	-1%&-7%
CN1CCCCC1C(=O)N1CCC(Oc2cccc(CN3CCN(c4ccccn4)CC3)c2)CC1 (stereo not given)	?	-26%
CC1CN(CCNC(=O)C2CCCc3c2[nH]c2ccccc32)Cc2ccccc2O1 (stereo not given)	?	11%
CSC[C@H]1CN(c2ccc(Br)cc2)C(=O)[C@H]1CC(=O)Nc1ccccc1	-29%	?
OC/C=C/c1ccccc1	8%	-13%
Cc1noc(C)c1CC(=O)N1CCOc2c(cc(-c3nc4ccccc4s3)cc2OC2CCOC2)C1 (stereo not given)	7%	-13%
COC(=O)N[C@H](C(C(=O)OC)=C(C)NCc1ccccc1)c1cccc(C)c1	15%[8.59 µM]	nt
C[C@@H](N)C(=O)O	-3%&6%	-8%&9%
N#C/C(=C/c1ccc(O)c(O)c1)C(=O)OC/C=C/c1ccccc1	16%	?
CCCCCCCCCCCCCCC[C@@H](O)[C@H](CO)NC(C)=O	6%&14%	0%&0%
CCN1C(N(C)CCc2ccc(Br)cc2)=NC(c2ccccc2)C(C(=O)OC)=C1C (stereo not given)	?	0%[8.59 µM]
COCOc1ccc(OC)cc1C(=O)/C=C/c1ccc(OC)c(Br)c1	?	?
Cc1ccc(C(=O)Nc2cnn(-c3ccc(C(=O)N(C)Cc4n[nH]c5c4CCCC5)cc3)c2)c(C)c1	?	?
NCCC(=O)NCCc1cnc[nH]1	0%[17.8 µM]	-2%[17.8 µM]
COC(=O)[C@H](CC(C)C)N(Cc1ccc(Br)cc1)S(=O)(=O)CCl	-7%	21%
CC(=O)C1=C(C)N(Cc2ccccc2)C(=O)NC1c1ccc(Br)cc1 (stereo not given)	-4%&0%[8.59 µM]	?
Cc1nc(N=Nc2cc(S(=O)(=O)O)c3cc([N+](=O)[O-])cc(S(=O)(=O)O)c3c2)c(COP(=O)(O)O)c(C=O)c1O	?	35%&1%&-9%[activator]
c1ccc(Oc2ccc(Nc3ncc(-c4ccccc4)o3)cc2)cc1	5%	nt
Cc1cc2ccc(=O)oc2cc1OC[C@@H](O)C(C)(C)O	7%	-2%
COC(=O)C12C[C@@H](C)C3C(C)C(c4ccccc4C31)N2C(=O)C(F)(F)F (stereo not given in full)	?	4%[8.59 µM]

Screening data deposited in PubChem BioAssay by National Center for Advancing Translational Sciences (NCATS).
